High-throughput results (PubChem BioAssay)
GIRK2 act: activators of human GIRK2 potassium channels; HEK293-GIRK2 thallium flux, Thallos fluorescence; calls only for hits at 25 µM; 0.05% of 63,000 active; AID 1259325, 2017;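 active = among the strongest 0.2% of first-round signals and kept after retests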;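 also: first round at about 10 µM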
Target sequence (P48051 whole entry, looked up): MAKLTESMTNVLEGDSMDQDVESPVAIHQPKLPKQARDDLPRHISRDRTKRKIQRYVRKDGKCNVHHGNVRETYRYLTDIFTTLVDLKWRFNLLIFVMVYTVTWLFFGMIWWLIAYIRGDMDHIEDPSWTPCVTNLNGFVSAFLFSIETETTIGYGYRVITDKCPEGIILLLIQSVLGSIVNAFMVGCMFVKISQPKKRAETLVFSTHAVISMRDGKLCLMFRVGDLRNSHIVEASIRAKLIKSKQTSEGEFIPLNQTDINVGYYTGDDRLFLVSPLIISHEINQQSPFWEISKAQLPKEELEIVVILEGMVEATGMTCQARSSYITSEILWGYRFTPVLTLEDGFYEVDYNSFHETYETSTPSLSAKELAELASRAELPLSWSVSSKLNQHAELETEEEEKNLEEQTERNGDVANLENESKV
Calls only; i = inactive. Only part of the results is shown; rates above refer to the full screens.

Compound | GIRK2 act
Cc1ccc(-c2noc(-c3ccc(=O)n(CC(=O)N4CCCCC4)c3)n2)cc1 | i
COCC1CCCN(Cc2csc(C)n2)C1 (configuration not stated) | i
O=C(CCn1c(=O)oc2ccc(Cl)cc21)Nc1nc2ccccc2s1 | i
O=C(NCC1(O)CCOc2ccccc21)C(=O)Nc1ccc2c(c1)OCO2 (configuration not stated) | i
COc1ccccc1N1CCN(CCNC(=O)C(=O)NCc2ccc(C)cc2)CC1 | i
CNC(=O)CSc1nnc(N2CCN(C(=O)c3cc(Cl)ccc3OC)CC2)s1 | i
CCCC(=O)Nc1ccc(S(=O)(=O)Nc2ccc3c(c2)CCCN3C(=O)c2ccccc2)cc1 | i
O=C(Nc1ccc(-c2nc3ccccc3s2)cc1)Nc1cccs1 | i
O=C(Nc1ccc(-c2nc3ccccc3s2)cc1)c1cccc(S(=O)(=O)N2CCOCC2)c1 | i
CCN1CCN(c2oc(-c3ccc(S(=O)(=O)N(C)C)cc3)nc2C#N)CC1 | i
Cn1nc(CNS(=O)(=O)Cc2ccccc2F)c2c1CCCC2 | i
O=C(CSC1CCCC1)N1CCC(Oc2ccc(C(F)(F)F)cn2)CC1 | i
CCOc1ccc2c(=O)c(-c3ccccc3OC)c(C)oc2c1 | i
CCc1[nH]nc(S(=O)(=O)N2CCN(CC(C)C)CC2)c1C(=O)OC | i
CCC(O)c1nc2ccccc2n1CCOc1ccccc1 (configuration not stated) | i
NC(=O)c1ccccc1OCC#CCNC(=O)c1ccc(Br)o1 | i
CC(C)C(NC(=O)c1ccc([N+](=O)[O-])cc1)c1nc2ccccc2[nH]1 (configuration not stated) | i
Cc1cc(C)c(NC(=O)Cn2c(=O)nc(-c3ccccc3)c3ccccc32)c(C)c1 | i
O=C1CCSCC(C(=O)NCc2ccc(OC(F)(F)F)cc2)N1 (configuration not stated) | i
Cc1cc(OCC(=O)Nc2cc(F)ccc2F)nc(-c2ccc(Cl)cc2)n1 | i
CCN1CCc2c(sc(NC(=O)c3ccc(C)cc3)c2-c2nc3ccccc3s2)C1 | i
Cc1cc(C)n(-c2ccc(=O)n(CC(=O)Nc3ccc(F)c(C(F)(F)F)c3)n2)n1 | i
COc1ccc(NC(=O)Cn2cccc(-c3nc(-c4ccc(C)cc4)no3)c2=O)c(OC)c1 | i
COc1ccccc1NC(=O)Cn1c(=O)n(CCCCC(=O)NCCC(C)C)c(=O)c2ccccc21 | i
CCc1ccccc1NC(=O)c1cccc(S(=O)(=O)N2CCOCC2)c1 | i
Cc1ccccc1Cn1c(=O)c2c(nc3n(-c4ccc(S(N)(=O)=O)cc4)c(C)cn23)n(C)c1=O | i
C[C@@H]1C[C@H]2O[C@@H]2/C=C\C=C\C(=O)Cc2c(Cl)c(O)cc(O)c2C(=O)O1 | i
COC(CNC(=O)C(=O)Nc1ccc(N2CCCS2(=O)=O)cc1)OC | i
Cn1c(=O)c2c(nc(N3CCNCC3)n2CC(O)COc2ccccc2Cl)n(C)c1=O (configuration not stated) | i
Cc1cccc(Sc2nccn3c(=O)n(CC(=O)N4CCN(c5ccccc5)CC4)nc23)c1 | i
COc1ccc(-c2cc3nc(C)cc(Cl)n3n2)cc1OC | i
CCSc1nnc(NC(=O)CN2CCN(c3c(C)nn(C4CCS(=O)(=O)C4)c3C)CC2)s1 (configuration not stated) | i
COc1ccc(S(=O)(=O)N2CCCc3cc(NS(=O)(=O)c4ccccc4)ccc32)cc1 | i
Cc1nc2ccccn2c1C(=O)N(CCc1cccs1)Cc1ccco1 | i
COCCCn1cnc2c(-c3ccccc3)cn(CC(=O)Nc3ccc(OC)c(Cl)c3)c2c1=O | i
CSCC(C)(O)CNC(=O)C(=O)Nc1cccc(C)c1 (configuration not stated) | i
Cc1ccc(C2NC(=O)N(CC(=O)Nc3ccc(C)c(C)c3)C3=C2C(=O)OC3)cc1 (configuration not stated) | i
O=C(c1ccc([N+](=O)[O-])o1)N1CCN(C2=NN=C(c3ccccc3)CS2)CC1 | i
CC(C)S(=O)(=O)c1ccc(CC(=O)NC2CC(O)C(CO)C2)cc1 (configuration not stated) | i
NS(=O)(=O)c1ccc(CCNc2nccn(-c3ccc4c(c3)OCO4)c2=O)cc1 | i
Cn1cccc(C(=O)N2CCC(Oc3ncccc3Cl)CC2)c1=O | i
CCOC(=O)c1cccc(N2COc3ccc4c(c3C2)O/C(=C\c2cccnc2)C4=O)c1 | i
COc1ccccc1-c1c(C)oc2cc(OCC(N)=O)ccc2c1=O | i
COc1ccccc1C1(CNC(=O)CN2C(=O)c3ccccc3C2=O)CCOCC1 | i
CCOc1ccc(CC(=O)Nc2cc(-n3c(C)nc4ccccc4c3=O)ccc2F)cc1 | i
CCCS(=O)(=O)N1CCc2ccc(NS(=O)(=O)Cc3ccc(C(F)(F)F)cc3)cc2C1 | i
O=C(Nc1ccc(S(=O)(=O)Nc2ncccn2)cc1)c1cnn2c1OCCC2 | i
Cn1cccc(C(=O)Nc2ccc3c(c2)C(=O)Nc2ccccc2O3)c1=O | i
O=C(c1ccccc1Br)N1CCN(Cc2nc(-c3ccccc3)cs2)CC1 | i
COc1ccc(NC(=O)c2csc(Nc3ccc(S(C)(=O)=O)cc3)n2)c(OC)c1 | i
COC(=O)c1ccc(NC(=O)CSc2nnc(N3CCN(C)CC3)s2)cc1 | i
CCOc1cc(Cl)c(S(=O)(=O)NCc2ccccn2)cc1Cl | i
C=C1CC[C@H]2[C@@](C)(CCC[C@@]2(C)C(=O)O)[C@@H]1CCC(C)CCO (some centres not stated) | i
CN1CCN(c2nnc(SCc3ccc(C(F)(F)F)cc3)s2)CC1 | i
COc1ccc(CCNC(=O)c2cc3c(=O)n(C)c(=O)n(C)c3n2Cc2ccccc2)cc1 | i
O=C(NCc1cccs1)c1csc(-c2cnccn2)n1 | i
O=C(CSc1n[nH]c(=O)c2cc(-c3ccco3)nn12)N1CCN(c2ccc(F)cc2)CC1 | i
O=C(c1ccc(OC(F)(F)F)cc1)N1CCC(CSC2=NCCS2)CC1 | i
CC(C)S(=O)(=O)c1ccc(CC(=O)Nc2ccc3cn[nH]c3c2)cc1 | i
CC(C)C(=O)Nc1nc(-c2ccccc2)ns1 | i

Additional structures.
Compound | GIRK2 act
COc1ccc(CCNC(=O)CCCCCn2c(=S)[nH]c3cc4c(cc3c2=O)OCO4)cc1OC | i
Cn1cccc1C(CNC(=O)c1ccco1)N1CCOCC1 (configuration not stated) | i
COc1ccc(NC(=O)C2CC2)cc1N1CCCC1=O | i
O=C(Nc1ccc2c(c1)OCO2)c1csc2nc(-c3ccc(F)cc3)cn12 | i
CC(=O)OCc1c(OC(C)=O)ccc2c1O/C(=C\c1ccccc1F)C2=O | i
CC1CCN(c2cc3c(cc2F)c(=O)c(-c2nc(-c4ccc5c(c4)OCO5)no2)cn3C)CC1 | i
Cc1cc(C)cc(N2CCCn3c2nc2c3c(=O)n(CC(=O)O)c(=O)n2C)c1 | i
O=C(Cn1nc2c(SC3CCCCC3)nccn2c1=O)Nc1ccccc1F | i
COc1ccccc1CC(=O)NCc1sc(-c2ccccc2Cl)nc1C | i
COc1ccc(CNc2nccn(-c3cc(C)c(Cl)cc3OC)c2=O)cc1 | i
COc1ccc(CNC(=O)c2ccc(Oc3nccnc3N3CCSCC3)cc2)cc1 | i
COc1ccc(-c2noc(C3CCN(CC(=O)Nc4ccc(C)cc4Cl)CC3)n2)cc1 | i
Cc1cccc(CC(=O)NCC2(c3cccs3)CCOCC2)c1 | i
O=C(CSc1nnc(Cn2ccc(=O)[nH]c2=O)o1)NC1CC1 | i
C[C@H]1CCC/C=C/C(=O)c2c(O)cc(O)cc2CC(=O)O1 | i
O=C(c1ccoc1)N1CCC(CNC(=O)C2(c3ccccc3)CCOCC2)CC1 | i
Cc1cc(NC(=O)c2cc3ccccc3c(=O)s2)ccc1Cl | i
O=c1[nH]ccn2nc3c(c12)CCCC3 | i
CC1(C)OCC2(CO1)CN(C(=O)CNC(=O)c1ccccc1)C2 | i
COCCNC(=O)Nc1ccc(-n2nnn(C)c2=O)cc1 | i
CC(C(=O)NCCOc1cc(N2CCCCC2)ncn1)n1nc(-c2ccccc2)ccc1=O (configuration not stated) | i
O=c1ccc(-c2ccccc2)nn1CCc1nc(-c2cccc(Br)c2)no1 | i
CCc1ccc(N(C)S(=O)(=O)c2ccsc2C(=O)Nc2ccc3c(c2)OCO3)cc1 | i
CC1CCN(CC(=O)Nc2ccc(Br)cn2)CC1 | i
Cc1cccc(NS(=O)(=O)c2ccc(CN3C(=O)c4ccccc4C3=O)cc2)c1C | i
O=c1cc(-c2cc3ccccc3oc2=O)c2ccc(O)cc2o1 | i
CC(=O)Oc1ccc(-c2csc(/C(C#N)=C/Nc3ccc(C(=O)OC(C)C)cc3)n2)cc1 | i

Another view of some results above:
O=C(CCn1c(=O)oc2ccc(Cl)cc21)Nc1nc2ccccc2s1
  GIRK2 act: i
O=C(NCC1(O)CCOc2ccccc21)C(=O)Nc1ccc2c(c1)OCO2 (configuration not stated)
  GIRK2 act: i
COc1ccccc1N1CCN(CCNC(=O)C(=O)NCc2ccc(C)cc2)CC1
  GIRK2 act: i

Filtered by structure: those above containing a halogen (30)
Compound | GIRK2 act
O=C(CCn1c(=O)oc2ccc(Cl)cc21)Nc1nc2ccccc2s1 | i
CNC(=O)CSc1nnc(N2CCN(C(=O)c3cc(Cl)ccc3OC)CC2)s1 | i
Cn1nc(CNS(=O)(=O)Cc2ccccc2F)c2c1CCCC2 | i
O=C(CSC1CCCC1)N1CCC(Oc2ccc(C(F)(F)F)cn2)CC1 | i
NC(=O)c1ccccc1OCC#CCNC(=O)c1ccc(Br)o1 | i
O=C1CCSCC(C(=O)NCc2ccc(OC(F)(F)F)cc2)N1 (configuration not stated) | i
Cc1cc(OCC(=O)Nc2cc(F)ccc2F)nc(-c2ccc(Cl)cc2)n1 | i
Cc1cc(C)n(-c2ccc(=O)n(CC(=O)Nc3ccc(F)c(C(F)(F)F)c3)n2)n1 | i
C[C@@H]1C[C@H]2O[C@@H]2/C=C\C=C\C(=O)Cc2c(Cl)c(O)cc(O)c2C(=O)O1 | i
Cn1c(=O)c2c(nc(N3CCNCC3)n2CC(O)COc2ccccc2Cl)n(C)c1=O (configuration not stated) | i
COc1ccc(-c2cc3nc(C)cc(Cl)n3n2)cc1OC | i
COCCCn1cnc2c(-c3ccccc3)cn(CC(=O)Nc3ccc(OC)c(Cl)c3)c2c1=O | i
Cn1cccc(C(=O)N2CCC(Oc3ncccc3Cl)CC2)c1=O | i
CCOc1ccc(CC(=O)Nc2cc(-n3c(C)nc4ccccc4c3=O)ccc2F)cc1 | i
CCCS(=O)(=O)N1CCc2ccc(NS(=O)(=O)Cc3ccc(C(F)(F)F)cc3)cc2C1 | i
O=C(c1ccccc1Br)N1CCN(Cc2nc(-c3ccccc3)cs2)CC1 | i
CCOc1cc(Cl)c(S(=O)(=O)NCc2ccccn2)cc1Cl | i
CN1CCN(c2nnc(SCc3ccc(C(F)(F)F)cc3)s2)CC1 | i
O=C(CSc1n[nH]c(=O)c2cc(-c3ccco3)nn12)N1CCN(c2ccc(F)cc2)CC1 | i
O=C(c1ccc(OC(F)(F)F)cc1)N1CCC(CSC2=NCCS2)CC1 | i
O=C(Nc1ccc2c(c1)OCO2)c1csc2nc(-c3ccc(F)cc3)cn12 | i
CC(=O)OCc1c(OC(C)=O)ccc2c1O/C(=C\c1ccccc1F)C2=O | i
CC1CCN(c2cc3c(cc2F)c(=O)c(-c2nc(-c4ccc5c(c4)OCO5)no2)cn3C)CC1 | i
O=C(Cn1nc2c(SC3CCCCC3)nccn2c1=O)Nc1ccccc1F | i
COc1ccccc1CC(=O)NCc1sc(-c2ccccc2Cl)nc1C | i
COc1ccc(CNc2nccn(-c3cc(C)c(Cl)cc3OC)c2=O)cc1 | i
COc1ccc(-c2noc(C3CCN(CC(=O)Nc4ccc(C)cc4Cl)CC3)n2)cc1 | i
Cc1cc(NC(=O)c2cc3ccccc3c(=O)s2)ccc1Cl | i
O=c1ccc(-c2ccccc2)nn1CCc1nc(-c2cccc(Br)c2)no1 | i
CC1CCN(CC(=O)Nc2ccc(Br)cn2)CC1 | i
